Sa helicase inh – S. aureus DNA helicase inhibition. AID 485395. 120,000 compounds, 0.05% hits. inhibition, %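 (tested at about 80 µM)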. purified S. aureus helicase, fluorescence unwinding assay; about half of the hits fall short of the stated cut;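 active means both duplicates at 50% or more, or one of them with a favoured structure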;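 further: 0% = mean of negative control wells and 100% = mean of positive control wells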
MgrA-DNA mod – S. aureus MgrA-DNA binding modulation; fluorescence polarization; inhibition, %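 (about 10 µg/mL by stock and volumes)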; 84,000 compounds, 0.13% hits;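 active means above 50% in either of two replicates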;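 further: 0% = protein plus DNA without compound and 100% = DNA alone without protein; higher means less MgrA bound to DNA so lower polarization; one replicate is shown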
Starred values were filed as active, the others as inactive; nt = not tested or not shown; & = joins results of further samples. Only part of the results is shown; the hit share may differ from the screen's.

A first look (7 entries):
Results follow in this order: Sa helicase inh	MgrA-DNA mod
Cc1cc(NC(=O)Nc2ccc3c(c2)OCCO3)c(C(F)(F)F)o1
  7	nt
O=C(NCCc1ccc(O)c(O)c1)C(F)(F)F
  -18	2.8
COc1cc(OC)c(-c2nc(-c3ccccc3)c(-c3cccs3)[nH]2)cc1OC
  11	0.5
C=Cc1c(C)c2cc3nc(cc4[nH]c(cc5nc(cc1[nH]2)C(C)=C5CCC(=O)O)c(CCC(=O)OC)c4C)[C@@]1(C)C3=CC=C(C(=O)OC)C1C(=O)OC (some centres not stated) (tested in a mixture with another compound)
  nt	2.8
CC(=O)Nc1ccc(Oc2nnc(-c3ccccc3)c3ccccc23)cc1
  nt	-2.5
Cc1cc2[nH]c(=S)[nH]c2cc1C
  32	nt
CC(C)N1CCC2(CC1)C(C#N)=C(O)NC1=C2C(=O)CC(C)(C)C1
  -61	37

The listing, from the first entry:
Results follow in this order: Sa helicase inh	MgrA-DNA mod
Cc1cc(NC(=O)Nc2ccc3c(c2)OCCO3)c(C(F)(F)F)o1
  7	nt
O=C(NCCc1ccc(O)c(O)c1)C(F)(F)F
  -18	2.8
COc1cc(OC)c(-c2nc(-c3ccccc3)c(-c3cccs3)[nH]2)cc1OC
  11	0.5
C=Cc1c(C)c2cc3nc(cc4[nH]c(cc5nc(cc1[nH]2)C(C)=C5CCC(=O)O)c(CCC(=O)OC)c4C)[C@@]1(C)C3=CC=C(C(=O)OC)C1C(=O)OC (some centres not stated) (tested in a mixture with another compound)
  nt	2.8
CC(=O)Nc1ccc(Oc2nnc(-c3ccccc3)c3ccccc23)cc1
  nt	-2.5
Cc1cc2[nH]c(=S)[nH]c2cc1C
  32	nt
CC(C)N1CCC2(CC1)C(C#N)=C(O)NC1=C2C(=O)CC(C)(C)C1
  -61	37
CCCC(=O)Nc1nc(C(=O)OCC)cs1
  0	nt
C/C(=N\NC(N)=O)C1CC(c2ccccc2)C(=O)O1 (configuration not stated)
  11	-2.7
CC1(CO)CSC(Nc2cccnc2)=N1 (configuration not stated)
  nt	-0.9
c1ccc(-n2cc3c(c2)CCc2cn(-c4ccccc4)cc2CC3)cc1
  14	-1.9
COc1ccccc1Nc1n[nH]c(=S)s1
  nt	3.0&9.6
O=c1n(S(=O)(=O)c2ccccc2)c2ccccc2n1S(=O)(=O)c1ccccc1
  -14	1.4
O=C(NCc1nnc(SC/C=C/c2ccccc2)o1)c1ccccc1F
  -13	nt
CC(=O)N1CCc2cc(S(=O)(=O)CCC(=O)Nc3c(C)cccc3C)ccc21
  -22	nt
COc1cccc(C(=O)Nc2noc3ccccc23)c1
  -27	nt
COc1ccc(NS(=O)(=O)/C=C/c2ccccc2)cc1
  -13	nt
C=CCSc1nnc(-c2ccc(C(C)(C)C)cc2)n1Cc1ccco1
  7	nt
CC(=O)N1CCC(N(Cc2ccco2)C(=O)NC23CC4CC(CC(C4)C2)C3)CC1
  6	nt
Cc1ccc(S(=O)(=O)CCC#N)cc1C
  2	-1.4
O=c1c2c3c(sc2nc2sc(C4CC4)nn12)CCCC3
  11	nt
COc1ccc(C2CC3(C)CC(=O)C2C(C#N)(C#N)C3(C#N)C#N)cc1 (configuration not stated)
  -40	nt
CCOC(=O)c1ncn(Cc2ccccc2)c1N
  nt	-0.2
NC(=O)c1ccc[n+]([O-])c1
  10	nt
COc1cc(Br)cc(/C=C2\Sc3ccccc3C2=O)c1O
  nt	-1.7
COc1ccc(C2C3CCC=C3C(C#N)=C(N)C2(C#N)C#N)cc1 (configuration not stated)
  -15	0.1
O=C(CCC(=O)N1CCOc2ccccc21)N1CCCCC1
  2	-0.2
Cc1ccc(S(=O)(=O)N2CCCOC2)cc1
  8	nt
Cc1ccc2c(c1)N(CC(=O)NC1CCCCC1C)C(=O)CO2 (configuration not stated)
  11	-1.4
O=S(=O)(Nc1ncccn1)c1ccc(NC(=S)NN2CCOCC2)cc1
  9	1.1

Whole records, quoted from the list. Screens in order: Sa helicase inh, MgrA-DNA mod
COc1cc(OC)c(-c2nc(-c3ccccc3)c(-c3cccs3)[nH]2)cc1OC is listed as 11, 0.5
C=CCSc1nnc(-c2ccc(C(C)(C)C)cc2)n1Cc1ccco1 is listed as 7, nt

Next records:
Results follow in this order: Sa helicase inh	MgrA-DNA mod
Cc1ccc(C(=O)c2cnc3cc4c(cc3c2N2CCN(C)CC2)OCO4)cc1C
  8	4.7
CC(CCc1ccc(O)cc1)NCCc1ccc(O)c(O)c1 (configuration not stated)
  nt	-2.1
O=C1/C(=C\c2ccc(Br)o2)CC/C1=C/c1ccc(Br)o1
  -2	31
C=CCn1c(C)cc(C(=O)CSc2nnc(-c3ccccc3)n2CC)c1C
  2	nt
COc1ccc(Cn2c(=O)sc3ccccc3c2=O)cc1
  nt	2.7
O=c1[nH]cnc2ccsc12
  nt	2.6
O=C(c1ccc2c(c1)sc1nc(-c3ccc(F)cc3)cn12)N1CCOCC1
  5	nt
COc1c(Cl)cc(Cl)c(OC)c1C(=O)N1CC(C)OC(C)C1 (configuration not stated)
  nt	0.2
COc1ccc(/C=C2\SC(=S)N(CC(=O)Nc3ncc(Cc4ccc(C)cc4)s3)C2=O)cc1OC
  nt	0.7
O=C(Nc1ccc(N2CCOCC2)c(Cl)c1)c1ccccc1Cl
  nt	1.9
O=C(O)CCN1CCCc2ccccc21
  2	-4.8
Cc1ccc(CC2SC(=O)NC2=O)o1 (configuration not stated)
  nt	0.2
O=C(Nc1cccc(Br)c1)C1CCC1
  -13	nt
O=C(c1ccc(F)cc1Cl)N1CCN(c2nc(-c3cccs3)ns2)CC1
  nt	0.0
O=C1OC(CO)CN1Cc1ccccc1 (configuration not stated)
  nt	-1.0
O=c1ccc2c(C(F)(F)F)cc(C(F)(F)F)nc2[nH]1
  nt	1.1
FC(F)(F)c1cnc2c(c1)Nc1ccccc1S2
  4	-0.7
CCc1cc2cc(C)cc(C)c2nc1SCC(=O)N1CCN(C(=O)c2ccco2)CC1
  -10	2.5
CSc1nc(N)nc(N2CCOCC2)n1
  nt	-2.2
COC(=O)c1cc(-c2ccccc2C(F)(F)F)no1
  8	-3.6
COc1ccccc1NC(=O)C1CC(=O)N(CCc2ccccc2)C(=Nc2ccccc2)S1 (configuration not stated)
  nt	0.9
CCCCn1c(=NC(=O)C(C)Oc2ccccc2)c(C(=O)OCC)cc2c(=O)n3ccccc3nc21 (configuration not stated)
  9	0.5
CC/C(=N/NC(=O)C1C2CCCCC21)c1ccc(O)cc1 (configuration not stated)
  12	-0.3
O=C(CCn1nnc(-c2cccs2)n1)NC1CCCCC1
  -11	-2.2
Cc1ccc(S(=O)(=O)N(C)CC(=O)Nc2ccc(S(N)(=O)=O)cc2)cc1
  3	7.1
NC(=O)C1CCCCN1Cc1cc(Cl)c2ccccc2c1O (configuration not stated)
  -3	nt
O=c1[nH]cnc2c1cnn2Cc1ccccc1
  -15	nt
CCC(CC)NC(=O)c1cc2c(C)nn(Cc3ccccc3Cl)c2s1
  9	nt
NC(=O)Cn1c2ccccc2c2nc3ccccc3nc21
  -18	nt
CC1=CCC2C(=O)N(c3ccccn3)C(=O)C2C1 (configuration not stated)
  8	0.3

Filtered by structure, those above with a COOH group (2)
Results follow in this order: Sa helicase inh	MgrA-DNA mod
C=Cc1c(C)c2cc3nc(cc4[nH]c(cc5nc(cc1[nH]2)C(C)=C5CCC(=O)O)c(CCC(=O)OC)c4C)[C@@]1(C)C3=CC=C(C(=O)OC)C1C(=O)OC (some centres not stated) (tested in a mixture with another compound)
  nt	2.8
O=C(O)CCN1CCCc2ccccc21
  2	-4.8

The listing continues.
canonical_smiles,Sa helicase inh,MgrA-DNA mod
NS(=O)(=O)c1cc(C(=O)OCC(=O)N2CCCCC2)c(Cl)cc1Cl,15,nt
CC(=O)Nc1ccc(N2C(=O)CC(N3CCCCC3C)C2=O)cc1 (configuration not stated),-11,-0.2
CC1(C)C(=O)Nc2ccccc2N1C(=O)COC(=O)COc1ccccc1,12,nt
CCOC(=O)c1cc(CC)sc1NC(=O)C(C)C,11,-0.3
Cc1ccccc1Nc1nnc(SC(C)C(=O)N(C)c2ccccc2)s1 (configuration not stated),6,nt
COC(=O)C1=C(N)Oc2cc(C)n(Cc3ccccc3)c(=O)c2C1c1ccncc1 (configuration not stated),10,-0.1
COc1ccc2c(c1)c(C(=O)CNc1nccs1)c(C)n2C,23,nt
CO/C=C1\SC(=S)N(CCc2ccccc2)C1=O,nt,0.2
O=C(Nc1n[nH]c(=S)s1)c1ccccc1,2,nt
Cc1nc(C2CCOC(C)(C)C2)cs1 (configuration not stated),7,2.7
O[C@H](CN1CCC2(CC1)OCCO2)C(F)(F)F,nt,-2.5
N#CCn1c(-c2cccs2)noc1=O,0,-0.6
CC/C=C\C/C=C\C/C=C\C/C=C\C/C=C\CCCCCC(=O)O,nt,2.0
COC(Cn1c(SCc2ccccc2)nnc1-c1cccc(S(=O)(=O)N(C)C)c1)OC,0,nt
CNS(=O)(=O)c1cccc(C(=O)OCC(=O)C(C)(C)C)c1,-3,nt
N#Cc1ccc(Oc2ccccc2)cc1S(=O)Cc1ccccc1 (configuration not stated),-4,-2.6
CCCC1=C(C(=O)OCC)C(c2cccnc2)n2ncnc2N1 (configuration not stated),19,-2.5
COC(=O)c1c(C)nc(C)c(C(=O)OC)c1-c1csc(S(=O)(=O)Nc2ccc(OC)cc2)c1,nt,-0.4
CC12CCC(C(C)(C)O)(CC1)CC2,nt,0.8
COC(CNC(=S)Nc1ccccc1Cl)OC,nt,-1.5
CC(C)=CC(=O)ON1C(=O)C2C3C=CC(O3)C2C1=O (configuration not stated),nt,0.7
Cc1ccc(-n2nnc3c(=O)oc4ccccc4c32)cc1,18,nt
O=S(=O)(c1cccc2cccnc12)N1C=CC(C(F)(F)F)=NCC1,nt,0.3
CN1CC(=O)N(c2ccccc2)C1=S,7,0.8
CN(C)CCC(=O)NN,19,nt
O=C(CN(c1ccc(F)cc1)S(=O)(=O)c1ccc2c(c1)OCCO2)N1CCN(Cc2ccc3c(c2)OCO3)CC1,7,-1.8
O=C1c2ccccc2S(=O)c2ccccc2S(=O)(=O)N1Cc1ccccc1 (configuration not stated),nt,0.8
CCOC(=O)N1CCN(C(=O)CNC(=O)Cn2cnc3ccccc3c2=O)CC1,-24,nt
CCCC1=NNC(=O)C1Cc1c(F)cccc1Cl (configuration not stated),nt,2.6
NC(=O)c1oc2ccccc2c1NC(=O)Cc1cccc2ccccc12,-21,nt
O=C(O)CN=C1NC2(CCCCC2)Cc2ccccc21,13,nt
Cc1ccc2oc(=O)c3cc(C(=O)NC4CC4)sc3c2c1,10,nt
CN(C)c1c(F)cc(C(N)=O)cc1F,nt,3.1
CCCc1n(CC(O)COc2ccccc2C)c2ccccc2[n+]1C (configuration not stated),5,-1.5
O=C(Nc1cccnc1)c1nc2ncccn2n1,-11,1.4
COc1ccc(C(C)C)cc1S(=O)(=O)N1CCCC1,-1,0.3
CCN(CC(=O)Nc1cc(C)on1)c1cccc2ccccc12,-9,nt
Cc1noc(C(=O)N2CCC(Cc3ccccc3)CC2)c1Cl,-6,nt
O=C1NC(=O)N(Cc2ccccc2Cl)C(=O)/C1=C/N1CCCCC1,3,-0.5
Cc1ccccc1CN1CCN(CCOCCO)CC1,3,-3.0
O=C(O)c1cccc2cccc(-c3cccc4cccc(C(=O)O)c34)c12,nt,2.7
CS(=O)(=O)Cc1cc(F)cc2c1OCOC2,nt,-1.2
Cc1noc2ncnc(SCC(=O)c3ccc(Cl)cc3)c12,nt,0.1
CCOC(=O)N1CCC(NC(=O)CCN2C(=O)C3C4C=CC(C4)C3C2=O)CC1 (configuration not stated),-1,nt
c1ccc2c(c1)c1ccccc1n2CCOCCN1CCCCC1,-1,nt
COC(=O)c1ccc2c(=O)[nH]c(CSc3nnc(-c4cccs4)n3N)nc2c1,5,nt
CC(=O)Oc1ccccc1C(=O)NC(C)c1ccccc1 (configuration not stated),0,-1.8
O=C(c1ccc(Br)o1)n1cnc2ccccc21,4,2.9
O=S(=O)(c1cc(Cl)c(Cl)cc1Cl)N1CCCC1,nt,-1.7
CC(=O)Nc1cccc(-c2nnc(SCc3ccccc3)o2)c1,19,-2.2
CN(C)C(=O)n1nc2c3c(cccc31)C(=O)c1ccccc1-2,18,3.5
CCOC(=O)c1nc(NCc2cccs2)c2ccccc2n1,7,nt
COc1ccc(S(=O)(=O)N2CCCC2)cc1C(=O)O,-7,nt
CSc1sc(C(=O)O)c(I)c1S(=O)(=O)C(C)C,nt,-2.3
Cc1c(C(=O)N2CCCCC2)sc2nc[nH]c(=O)c12,13,-1.7
Cc1oc2c(CN(C)C)c(O)ccc2c(=O)c1-c1cnn(-c2ccccc2)c1,26,nt
Brc1ccc(C=NC2CCCCC2)cc1,-6,3.9
Cc1[nH]c2ccc(Cl)cc2c(=O)c1CN1CCCCC1,8,nt
O=c1nc(SCc2ccccc2)nc2ccccn12,9,nt
CCN=C1SC(C(=O)Nc2ccc(OCC)cc2)CC(=O)N1CC (configuration not stated),25,nt

The listing continues:
canonical_smiles,Sa helicase inh,MgrA-DNA mod
Cc1cccc(N2CCN(C(=O)C(Cc3ccccc3)NC(N)=O)CC2)c1C (configuration not stated),4,nt
O=C(Cn1cnc2c(nnn2Cc2ccccc2)c1=O)N1CCCC1,-21,nt
CCOC(=O)c1cnn(-c2ccccc2)c1NC(=O)Nc1ccccc1,21,nt
COC(=O)N1c2ccccc2C=CC1C#N (configuration not stated),4,2.1
CCOC(=O)c1c(NC(=O)c2cccc(C)c2)sc(C(=O)Nc2cc(C(F)(F)F)ccc2Cl)c1C,nt,2.2
O=C(Oc1ccc(Oc2ccccc2)cc1)N1CCC(OC(=O)n2ccnc2)CC1,nt,3.0
Cc1c(C)c(C)c(CSC(=N)CC#N)c(C)c1C,nt,0.9
COc1cccc(C(=O)Nc2cc(F)cc(F)c2)c1,8,-2.2
COc1ccc(OC)c(N=C(N)N=C(N)N)c1,13,0.3
Cc1c(C)c(C)c(CSc2cccc(NC(=O)/C=C/C(=O)O)c2)c(C)c1C,nt,3.7
COc1ccc(OC)c(S(=O)(=O)c2cc3ccccc3oc2=O)c1,17,-1.7

Bioassay records from PubChem.
